Screening data as filed in PubChem.
A1 apoptosis 2: compounds inhibiting A1, read as caspase activation. MEF A1-2A-BIM cells, caspase-Glo luminescence, 3 h; percent of clofoctol response, DMSO zero. caspase activation, % (no concentration beside the values). 24,000 tested, under 10 active; in the data active = caspase activation above about 5.9%;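 note: wells of about 30 µL received 50 nL stock; the first replicate is given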
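Material: mouse embryonic fibroblasts co-expressing A1 and BIM (A1-2A-BIM), primed for A1 dependence / Quantity: 2500 cells/well / Buffer or medium: RPMI-1640 growth medium with 10% FBS / Doses: 50 nL compound per well, pinned / Schedule: 3 h compound exposure at 37 °C / Signal: Caspase-Glo luminescence (DEVD substrate) / Measure: Caspase-3/7 activation, seen as rise in luminescence signal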
Starred values were filed as active, the others as inactive. This is a subset, so the mix of outcomes need not match the whole.

Preview:
SMILES | A1 apoptosis 2
COc1ccc(S(=O)(=O)N(C)C[C@@H]2OCCCC[C@@H](C)Oc3ccc(NC(=O)Nc4cccc5ccccc45)cc3C(=O)N([C@@H](C)CO)C[C@@H]2C)cc1 | 0.3
CNC[C@@H]1Oc2ccc(NC(=O)Cn3cnnn3)cc2CC(=O)N([C@@H](C)CO)C[C@@H]1C | -1.3
Cc1noc(C)c1NC(=O)Nc1ccc2c(c1)C(=O)N([C@H](C)CO)C[C@@H](C)[C@@H](CN(C)CC1CCCCC1)O2 | -1.2
CC(C)NC(=O)N(C)C[C@@H]1Oc2ccc(NC(=O)CCC(F)(F)F)cc2C(=O)N([C@H](C)CO)C[C@@H]1C | 0.5
CNC(=O)C1=C[C@H](c2ccc(C(=O)OC)cc2)C[C@H](OCc2ccc(CO)cc2)O1 | -0.6
Cc1ccc(S(=O)(=O)N(C)C[C@H]2Oc3ccc(N(C)C)cc3CC(=O)N([C@H](C)CO)C[C@@H]2C)cc1 | -1.0
C[C@H]1CN([C@@H](C)CO)C(=O)c2cc(NS(=O)(=O)c3cn(C)cn3)ccc2O[C@@H]1CN(C)Cc1ccncc1 | -0.4
COc1ccc(NC(=O)N(C)C[C@@H]2Oc3ccc(NS(=O)(=O)c4ccc(Cl)cc4)cc3CC(=O)N([C@@H](C)CO)C[C@H]2C)cc1 | -0.4
C[C@H](CO)N1C[C@H](C)[C@H](CN(C)C)Oc2c(NC(=O)CCCCCC(=O)Nc3ccccc3N)cccc2C1=O | 0.2

The list itself, from the first entry:
SMILES | A1 apoptosis 2
COc1ccc(S(=O)(=O)N(C)C[C@@H]2OCCCC[C@@H](C)Oc3ccc(NC(=O)Nc4cccc5ccccc45)cc3C(=O)N([C@@H](C)CO)C[C@@H]2C)cc1 | 0.3
CNC[C@@H]1Oc2ccc(NC(=O)Cn3cnnn3)cc2CC(=O)N([C@@H](C)CO)C[C@@H]1C | -1.3
Cc1noc(C)c1NC(=O)Nc1ccc2c(c1)C(=O)N([C@H](C)CO)C[C@@H](C)[C@@H](CN(C)CC1CCCCC1)O2 | -1.2
CC(C)NC(=O)N(C)C[C@@H]1Oc2ccc(NC(=O)CCC(F)(F)F)cc2C(=O)N([C@H](C)CO)C[C@@H]1C | 0.5
CNC(=O)C1=C[C@H](c2ccc(C(=O)OC)cc2)C[C@H](OCc2ccc(CO)cc2)O1 | -0.6
Cc1ccc(S(=O)(=O)N(C)C[C@H]2Oc3ccc(N(C)C)cc3CC(=O)N([C@H](C)CO)C[C@@H]2C)cc1 | -1.0
C[C@H]1CN([C@@H](C)CO)C(=O)c2cc(NS(=O)(=O)c3cn(C)cn3)ccc2O[C@@H]1CN(C)Cc1ccncc1 | -0.4
COc1ccc(NC(=O)N(C)C[C@@H]2Oc3ccc(NS(=O)(=O)c4ccc(Cl)cc4)cc3CC(=O)N([C@@H](C)CO)C[C@H]2C)cc1 | -0.4
C[C@H](CO)N1C[C@H](C)[C@H](CN(C)C)Oc2c(NC(=O)CCCCCC(=O)Nc3ccccc3N)cccc2C1=O | 0.2
C[C@H](CO)N1C[C@H](C)[C@@H](CN(C)S(=O)(=O)c2ccc(F)cc2)Oc2ccc(NC(=O)Cc3ccccc3)cc2CC1=O | 1.1
COc1ccc(NC(=O)N(C)C[C@@H]2OCCCC[C@H](C)Oc3ccc(N(C)C)cc3C(=O)N([C@H](C)CO)C[C@H]2C)cc1 | -0.2
C[C@H](CO)N1C[C@H](C)[C@@H](CN(C)C(=O)Nc2cccc3ccccc23)Oc2c(NC(=O)CCCCCC(=O)Nc3ccccc3N)cccc2C1=O | -0.4
COC(=O)CCCCCCC(=O)N/N=C/c1ccc2c(c1)OCCO2 | 0.3
CNC[C@H]1Oc2c(NC(=O)Nc3cccc4ccccc34)cccc2C(=O)N([C@H](C)CO)C[C@H]1C | 1.3
C[C@H](CO)N1C[C@H](C)[C@H](CN(C)C(=O)Nc2ccccc2)Oc2ccc(NC(=O)Nc3cccc4ccccc34)cc2C1=O | 0.0
C[C@H](CO)N1C[C@H](C)[C@H](CN(C)S(C)(=O)=O)Oc2c(cccc2N(C)C)C1=O | -0.2
CC(C)NC(=O)Nc1ccc2c(c1)C(=O)N([C@H](C)CO)C[C@H](C)[C@H](CN(C)Cc1ccc(C(F)(F)F)cc1)OCCCC[C@H](C)O2 | -0.4
C[C@@H]1CN([C@@H](C)CO)C(=O)c2cc(N(C)C)ccc2O[C@@H](C)CCCCO[C@@H]1CN(C)C(=O)NC1CCCCC1 | 1.1
C[C@H]1CN([C@@H](C)CO)C(=O)c2cc(NC(=O)CCCCCC(=O)Nc3ccccc3N)ccc2O[C@@H]1CN(C)Cc1ccc2c(c1)OCO2 | 0.1
CNC[C@@H]1OCCCC[C@H](C)Oc2ccc(NC(=O)c3ccncc3)cc2C(=O)N([C@H](C)CO)C[C@@H]1C | 0.6
CNC[C@H]1Oc2ccc(NC(=O)CCN3CCOCC3)cc2CC(=O)N([C@H](C)CO)C[C@@H]1C | -0.4
Cc1ccc(S(=O)(=O)Nc2ccc3c(c2)C(=O)N([C@H](C)CO)C[C@H](C)[C@H](CN(C)C)OCCCC[C@@H](C)O3)cc1 | -0.3
COc1ccc(S(=O)(=O)N(C)C[C@H]2Oc3ccc(NC(=O)c4ccncc4)cc3CC(=O)N([C@@H](C)CO)C[C@@H]2C)cc1 | 0.0
C[C@H]1CN([C@@H](C)CO)C(=O)Cc2cc(NS(=O)(=O)c3cn(C)cn3)ccc2O[C@H]1CN(C)CC1CC1 | 0.1
C[C@@H]1CCCCO[C@H](CN(C)S(=O)(=O)c2cn(C)cn2)[C@@H](C)CN([C@H](C)CO)C(=O)c2cc(NS(=O)(=O)c3cn(C)cn3)ccc2O1 | -0.9
C[C@@H]1CN([C@@H](C)CO)C(=O)c2cccc(NC(=O)Nc3ccc4c(c3)OCO4)c2O[C@@H]1CN(C)C(=O)Nc1ccc(C(F)(F)F)cc1 | 1.1
C[C@@H]1CN([C@@H](C)CO)C(=O)Cc2cc(NS(=O)(=O)c3ccccc3)ccc2O[C@H]1CN(C)C(=O)NC1CCCCC1 | 0.6
C[C@H]1CN([C@@H](C)CO)C(=O)Cc2cc(NS(=O)(=O)c3ccc(F)cc3)ccc2O[C@@H]1CN(C)C(=O)NC1CCCCC1 | 0.4
Cc1noc(C)c1NC(=O)N(C)C[C@@H]1Oc2ccc(NC(=O)Cc3ccccc3)cc2C(=O)N([C@H](C)CO)C[C@H]1C | 1.1
COc1ccc(S(=O)(=O)N(C)C[C@H]2Oc3c(NC(=O)C4CC4)cccc3C(=O)N([C@@H](C)CO)C[C@H]2C)cc1 | -0.7
C[C@@H]1CCCCO[C@H](CN(C)C(=O)c2ccccc2)[C@@H](C)CN([C@H](C)CO)C(=O)c2cc(NS(C)(=O)=O)ccc2O1 | 0.0
Cc1noc(C)c1NC(=O)N(C)C[C@@H]1Oc2ccc(NC(=O)Cn3cnnn3)cc2CC(=O)N([C@H](C)CO)C[C@H]1C | 2.1
C[C@@H]1CN([C@@H](C)CO)C(=O)c2cc(NC(=O)Nc3ccc4c(c3)OCO4)ccc2O[C@@H]1CN(C)Cc1ccc2c(c1)OCO2 | 0.1
Cc1ccc(S(=O)(=O)Nc2ccc3c(c2)CC(=O)N([C@H](C)CO)C[C@@H](C)[C@H](CN(C)S(=O)(=O)c2ccc(F)cc2)O3)cc1 | -0.5
C[C@@H]1CN([C@H](C)CO)C(=O)c2cc(NC(=O)Nc3ccc(C(F)(F)F)cc3)ccc2O[C@H]1CN(C)Cc1ccc(C(=O)Nc2ccccc2N)cc1 | -0.5
C[C@@H]1CN([C@H](C)CO)C(=O)c2cc(NC(=O)c3ccccc3)ccc2O[C@@H](C)CCCCO[C@H]1CN(C)Cc1ccc(C(F)(F)F)cc1 | -0.2
C[C@@H]1CN([C@@H](C)CO)C(=O)c2cc(NC(=O)Nc3ccc(C(F)(F)F)cc3)ccc2O[C@H]1CN(C)Cc1ccc(Cl)c(Cl)c1 | -0.2
C[C@@H]1CCCCO[C@@H](CN(C)Cc2ccncc2)[C@@H](C)CN([C@@H](C)CO)C(=O)c2cc(NC(=O)Nc3cccc4ccccc34)ccc2O1 | 0.5
C[C@@H]1CN([C@H](C)CO)C(=O)c2cc(NC(=O)Nc3ccc4c(c3)OCO4)ccc2O[C@@H]1CN(C)C(=O)NC1CCCCC1 | -0.7
C[C@H]1CN([C@@H](C)CO)C(=O)c2cccc(NC(=O)c3ccc(-c4nccs4)cc3)c2O[C@@H]1CN(C)S(C)(=O)=O | 0.0
C[C@@H]1CN([C@H](C)CO)C(=O)c2cc(NS(=O)(=O)c3ccc(Cl)cc3)ccc2O[C@@H](C)CCCCO[C@H]1CN(C)S(=O)(=O)c1ccc(F)cc1 | 0.3
C[C@H]1CN([C@@H](C)CO)C(=O)c2cccc(NC(=O)Nc3ccc(C(F)(F)F)cc3)c2O[C@@H]1CN(C)S(=O)(=O)c1cn(C)cn1 | -0.9
Cc1ccc(S(=O)(=O)N(C)C[C@@H]2OCCCC[C@H](C)Oc3ccc(NC(=O)Nc4ccc(F)cc4)cc3C(=O)N([C@H](C)CO)C[C@@H]2C)cc1 | -0.8
C[C@H](CO)N1C[C@H](C)[C@@H](CN(C)S(C)(=O)=O)Oc2c(NC(=O)Nc3ccc4c(c3)OCO4)cccc2C1=O | -0.5
C=CCOc1ccccc1/C=N/NC(=O)c1ccccc1O | -1.9
C[C@H](CO)N1C[C@H](C)[C@@H](CN(C)Cc2ccc(C(=O)Nc3ccccc3N)cc2)Oc2ccc(NC(=O)Nc3ccc(F)cc3)cc2CC1=O | -0.2
C[C@H](CO)N1C[C@H](C)[C@@H](CN(C)Cc2ccc(C(F)(F)F)cc2)Oc2ccc(NC(=O)C3CC3)cc2CC1=O | -1.4
C[C@@H]1CCCCO[C@@H](CN(C)S(=O)(=O)c2ccc(Cl)cc2)[C@@H](C)CN([C@H](C)CO)C(=O)c2cc(NC(=O)Nc3ccccc3)ccc2O1 | -0.4
COc1ccc(NC(=O)N(C)C[C@@H]2Oc3ccc(NS(=O)(=O)c4ccc(F)cc4)cc3C(=O)N([C@H](C)CO)C[C@H]2C)cc1 | 0.5
C[C@H]1CN([C@@H](C)CO)C(=O)CCCn2cc(nn2)CO[C@@H]1CN(C)C(=O)Nc1ccc(F)cc1 | 0.5
CNC[C@@H]1Oc2ccc(NS(=O)(=O)c3cn(C)cn3)cc2CC(=O)N([C@H](C)CO)C[C@H]1C | -0.1
O=C(N/N=C/c1cccc2ccccc12)c1ccccc1O | -3.5
C[C@H](CO)N1C[C@H](C)[C@H](CN(C)Cc2ccc(-c3ccccc3)cc2)Oc2ccc(NC(=O)Nc3ccc4c(c3)OCO4)cc2C1=O | -1.5
C/C=C/[C@@H](CC(=O)N1Cc2ccccc2C[C@H]1CO)[Si](C)(C)c1ccc(OC)cc1 | 0.2
CC(C)NC(=O)Nc1ccc2c(c1)CC(=O)N([C@@H](C)CO)C[C@@H](C)[C@@H](CN(C)Cc1ccc(Oc3ccccc3)cc1)O2 | -0.5
C[C@H](CO)N1C[C@H](C)[C@H](CN(C)Cc2ccc(C(=O)Nc3ccccc3N)cc2)Oc2c(NC(=O)c3ccncc3)cccc2C1=O | 1.6
C[C@H]1CN([C@@H](C)CO)C(=O)Cc2cc(NC(=O)CCC(F)(F)F)ccc2O[C@H]1CN(C)C(=O)Nc1ccc2c(c1)OCO2 | -0.4
COc1cc(Br)cc(/C=N/NC(=O)CCCCCCC(=O)O)c1O | -0.5
COc1ccc(S(=O)(=O)N(C)C[C@H]2OCCCC[C@H](C)Oc3ccc(NS(=O)(=O)c4ccc(C)cc4)cc3C(=O)N([C@H](C)CO)C[C@@H]2C)cc1 | -1.0
C[C@H](CO)N1C[C@H](C)[C@H](CN(C)C(=O)Nc2ccc(F)cc2)Oc2ccc(N(C)C)cc2C1=O | -0.1
Later entries.
SMILES | A1 apoptosis 2
Cc1ccc(S(=O)(=O)N(C)C[C@@H]2Oc3c(NC(=O)Nc4cccc5ccccc45)cccc3C(=O)N([C@@H](C)CO)C[C@H]2C)cc1 | -0.2
COc1ccc(C#Cc2ccc3c(c2)[C@]2(C(=O)N3)[C@H](c3ccc(O)cc3)N3[C@H](c4ccccc4)[C@H](c4ccccc4)OC(=O)[C@H]3[C@@H]2C(=O)N2CCN(c3ncccn3)CC2)cc1 | 0.1
CC(C)NC(=O)Nc1ccc2c(c1)C(=O)N([C@H](C)CO)C[C@@H](C)[C@H](CN(C)S(=O)(=O)c1ccc(Cl)cc1)OCCCC[C@@H](C)O2 | -1.2
Cc1noc(C)c1S(=O)(=O)N(C)C[C@@H]1OCCCC[C@H](C)Oc2ccc(NS(C)(=O)=O)cc2C(=O)N([C@H](C)CO)C[C@@H]1C | -0.1
Cc1noc(C)c1S(=O)(=O)Nc1cccc2c1O[C@H](CN(C)C(=O)Nc1ccccc1)[C@H](C)CN([C@H](C)CO)C2=O | -0.3
C[C@@H]1CCCCO[C@H](CN(C)C(=O)CCC(F)(F)F)[C@H](C)CN([C@@H](C)CO)C(=O)c2cc(NS(=O)(=O)c3ccccc3)ccc2O1 | -0.2
C[C@H](CO)N1C[C@H](C)[C@@H](CN(C)Cc2ccccc2)Oc2ccc(NC(=O)Cn3cnnn3)cc2CC1=O | -0.8
Cc1noc(C)c1NC(=O)Nc1cccc2c1O[C@H](CN(C)Cc1ccc(Cl)c(Cl)c1)[C@@H](C)CN([C@H](C)CO)C2=O | -0.7
C[C@H]1CN([C@@H](C)CO)C(=O)c2cccc(NS(=O)(=O)c3ccccc3)c2O[C@H]1CN(C)C | 0.1
C[C@H]1CN([C@@H](C)CO)C(=O)c2cc(NC(=O)Nc3ccc(F)cc3)ccc2O[C@@H]1CN(C)C | 0.0
C[C@H](CO)N1C[C@H](C)[C@H](CN(C)S(=O)(=O)c2ccc(Cl)cc2)OCCCC[C@H](C)Oc2ccc(NS(=O)(=O)c3ccc(F)cc3)cc2C1=O | -0.9
COc1ccc(S(=O)(=O)N(C)C[C@H]2Oc3ccc(NC(=O)c4ccncc4)cc3CC(=O)N([C@@H](C)CO)C[C@H]2C)cc1 | 1.2
